SARS PLpro yeast = qHTS of Yeast-based Assay for SARS-CoV PLP; Potency, µM (doses to about 32.9 µM), for the others: at the top dose activity, positive = growth rescue; AID 485353, 2010; S. cerevisiae expressing SARS-CoV PLpro, growth rescue; control for the full effect not named in the record; 330,000 compounds, 0.19% hits; active means well fitted rising curve with a large enough effect; inconclusive means small, poorly fitted or top-dose-only effect; inactive means no such curve, though single readings can be large or run the other way; also: 0% is about no effect; nearly all actives have a fitted effect of over 55% in size; growth read by luminescence after 48 h
NS1 inh = qHTS Assay for Inhibitors of Influenza NS1 Protein Function. 270,000 compounds, 0.4% hits. Potency, µM (top dose mostly 46.1 µM), inactives show top-dose activity, positive = more growth. S. cerevisiae slowed by influenza A NS1, growth recovery by OD600. AID 2326, 2010; active means well fitted rising curve with a large enough effect; inconclusive means small, poorly fitted or top-dose-only effect; inactive means no such curve, though single readings can be large or run the other way; also: nearly all actives have a fitted effect of over 50% in size
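S. cerevisiae expressing influenza A NS1, grown in glucose, washed, then diluted 1:100 into pH 6.0 -URA galactose medium with 23 nl compound. Growth recovery read as OD600; NS1-free strain serves as control.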
LASV entry inh = qHTS for Inhibitors of binding or entry into cells for Lassa Virus; Lassa virus pseudotype entry inhibition, cell reporter; control for the full effect not named in the record; Potency, µM (doses to about 37.9 µM), without a hit: top-dose activity change, negative = inhibition, actives largely listed as inhibitors; 300,000 compounds, 1.2% hits; AID 540256, 2011; active means well fitted inhibition curve with a large enough effect; inconclusive means small, poorly fitted or top-dose-only effect, or effect the other way; inactive means flat fitted curve, though single readings scatter; tested in HEK293 cells; also: % is scaled to controls: 0 for no effect and ±100 for the full control effect; nearly all actives have a fitted effect of over 50% in size; luciferase read-out
MARV entry inh = qHTS for inhibitors of binding or entry into cells for Marburg Virus. Marburg virus pseudotyped entry inhibition, cell reporter; control for the full effect not named in the record; about a third of the inactives were read at about 46 µM. Potency, µM (top dose mostly 37.8 µM), for the others: at the highest dose activity change, negative = inhibition, usual class: inhibitors. 300,000 compounds, 1.8% hits; active = well fitted inhibition curve with a large enough effect; inconclusive = small, poorly fitted or top-dose-only effect, or effect the other way; inactive = flat fitted curve, though single readings scatter; tested in HEK293 cells; about a fifth of its hits are not listed in these tables; also: % is scaled to controls: 0 for no effect and ±100 for the full control effect; luciferase read-out
Cruzain Triton = qHTS Assay for Promiscuous and Specific Inhibitors of Cruzain (with detergent). Cruzipain (Trypanosoma cruzi), P25779. purified cruzain, Z-FR-AMC fluorescence, 0.01% Triton. Potency, µM, for inactives: max response, negative = inhibition, hits mostly inhibitors. 200,000 compounds, 0.43% hits;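 also: plate controls were neutral wells for no effect and buffer without enzyme for full effect; nearly all actives have a fitted effect of over 40% in size; top concentration of the series not given in the record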
Target sequence (P25779 123-467 limits assumed): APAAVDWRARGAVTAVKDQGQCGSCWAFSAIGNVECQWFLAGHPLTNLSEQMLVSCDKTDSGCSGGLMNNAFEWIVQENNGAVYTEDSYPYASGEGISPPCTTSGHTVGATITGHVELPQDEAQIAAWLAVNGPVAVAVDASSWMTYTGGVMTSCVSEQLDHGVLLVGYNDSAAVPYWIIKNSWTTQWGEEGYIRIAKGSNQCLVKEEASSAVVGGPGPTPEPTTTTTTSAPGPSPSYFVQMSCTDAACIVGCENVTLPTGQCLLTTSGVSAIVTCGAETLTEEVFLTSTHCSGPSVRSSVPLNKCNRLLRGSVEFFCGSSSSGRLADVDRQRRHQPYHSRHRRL
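Sodium acetate buffer (100 mM, pH 5.5) containing 5 mM DTT and 0.01% Triton X-100 hosted 1.5 nM cruzain and test compound for 15 min at room temperature. Cleavage of 2 uM Z-FR-AMC was then tracked by fluorescence.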
2A StopGo = High Throughput Screening for Foot and Mouth Disease Virus Antivirals | Potency, µM (highest dose often 57.9 µM), without a hit: at the top dose signal change, negative = less light | human cells with a luciferase reporter of 2A StopGo recoding; control for the full effect not named in the record | AID 1159524, 2015 | 410,000 compounds, 1.2% hits; active = well fitted falling curve with a large enough effect; inconclusive = small, poorly fitted or top-dose-only effect; inactive = no such curve, though single readings can be large or run the other way; tested in HEK293T cells; also: % is scaled to controls: 0 for no effect and ±100 for the full control effect; nearly all actives have a fitted effect of over 45% in size; luciferase light after 4 h
Cruzain inh noDet = qHTS Assay for Promiscuous and Specific Inhibitors of Cruzain (without detergent) | Cruzipain (Trypanosoma cruzi), P25779 | purified cruzain, Z-FR-AMC fluorescence, no detergent | Potency, µM, inactives show max response, negative = inhibition, actives largely listed as inhibitors | 200,000 compounds, 2.3% hits | AID 1476, 2009;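 also: plate controls were enzyme without inhibitor for no effect and buffer without enzyme for full effect; nearly all actives have a fitted effect of over 40% in size; top concentration of the series not given in the record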
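Purified cruzain at 1.5 nM, pre-incubated 15 min with compound at room temperature in 100 mM sodium acetate pH 5.5, 5 mM DTT, 0.00005% Triton X-100. Reaction started with 2 uM Z-FR-AMC; AMC fluorescence increase over 60 s gives rate.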
RE007 growth inh = qHTS Assay for Inhibitors of the HIV-1 protein Vpr | 360,000 compounds, 0.21% hits | Potency, µM (highest dose often 92.2 µM), for inactives: top-dose activity change, negative = less growth | S. pombe RE007 Vpr strain, BacTiter-Glo ATP luminescence, 24 h; control for the full effect not named in the record | AID 651644, 2012; active = well fitted falling curve with a large enough effect; inconclusive = small, poorly fitted or top-dose-only effect; inactive = no such curve, though single readings can be large or run the other way;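 also: % is scaled to controls: 0 for no effect and ±100 for the full control effect; nearly all actives have a fitted effect of over 50% in size; the assay follows cell death caused by Vpr and the record does not say whether a fall means rescue or toxicity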
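Fission yeast RE007 carrying one integrated HIV-1 vpr copy, seeded at OD 0.01 in PMG+AL medium with 23 nL pinned compound. Grown 24 h at 30 degrees; viability read by BacTiter-Glo luminescence after 5 min.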
Active calls of the source: *; ? = inconclusive; . = not tested or not shown; & = joins results of further samples; [ ] = dose if it differs, or a comment. Unless noted, calls follow the shape of the dose curve; as a rule, active = well fitted curve in the direction sought with a large enough effect; inconclusive = small, poorly fitted or top-dose-only effect, or another doubt; inactive = no such curve, though single readings can be large; an effect the other way counts as inactive or inconclusive. Potency is read from the fitted curve at half-maximal effect.

SMILES	SARS PLpro yeast	NS1 inh	LASV entry inh	MARV entry inh	Cruzain Triton	2A StopGo	Cruzain inh noDet	RE007 growth inh
COC(=O)C(C)Sc1nc2c(c(=O)n(C)c(=O)n2C)n1CCC(C)C (stereo not given)	-5%	-6%	?	1%&-14%	-3.0%	-8%	0%	5%
C=CCNC(=S)Nc1ccc(N(C)C)cc1	1%	7%	25%[46.1 µM]	?	.	38%[activator]	.	-3%
COc1ccc(C(C(=O)NC(C)(C)C)N(C(=O)CCC(=O)Nc2cc(C)on2)c2cccc(C)c2C)cc1 (stereo not given)	0%	-1%	6%	?	.	37%[activator]	.	-10%
COc1ccc(-c2nnc(N(C)C(=O)c3cccnc3)s2)cc1	-16%	-57%	15%	-2%	0.4%	8%	-6%	-6%
CCOc1ccc(N(C)S(=O)(=O)c2cnc[nH]2)cc1	0%	9%	.	.	.	0%	.	-5%
Cc1cc(C)c2oc(-c3ccc(C)c(NC(=S)NC(=O)c4cccs4)c3)nc2c1	-1%	12%	16%	-3%	6.4%	13%	7.9µM*	-20%
Cc1cc(C(=O)N/N=C/c2ccco2)n[nH]1	-4%	3%	0%	18%[46.1 µM]	.	0%	.	0%
O=C(NCCc1ccccc1)c1nnc(CS(=O)(=O)c2ccccc2)o1	0%	7%	.	.	.	-2%	.	7%
C=CCSc1n[nH]c(-c2ccc(OC)cc2)n1	-16%	-23%	-18%	1%	3.1%	47%[activator]	4%	-18%
Cc1c(F)cccc1NC(=O)C1CCCN1S(=O)(=O)c1ccc(F)cc1 (stereo not given)	.	.	11%[46.1 µM]	-5%[46.1 µM]	-1.9%	?	-5%	.
Cc1cccc(CC(=O)NC2CCN(C)CC2)c1	0%	-2%	.	.	.	0%	.	7%
CCNC(=O)NC(=O)C(C)OC(=O)C1CCN(S(=O)(=O)c2ccccc2F)CC1 (stereo not given)	16%	-7%	-5%	?	1.1%	-3%	-2%	0%
Cc1cc(SCc2ccc(Cl)c(Cl)c2)nc(=O)[nH]1	-6%	3%	.	.	.	39%[activator]	.	12%
CCOC(=O)c1nnn(-c2nc(OC)nc(N(C)C)n2)c1-c1ccccc1	0%	-5%	6%	-5%[46.1 µM]	7.3%	-20%	-1%	28%
N#CC(C#N)=Cc1c[nH]c(=O)c(C#N)c1Nc1ccccc1	.	.	?	?	.	9%	.	11%
CC(=O)N1CCCC(N2CCN(c3cccc(C(F)(F)F)c3)CC2)C1 (stereo not given)	5%	14%	.	.	.	-16%	.	-3%
Cc1cc(C)cc(OCC(=O)Nc2ccc(F)cc2)c1	-1%	-12%	-9%	4%	0.2%	.	-19%	26%
CCCCOC(=O)c1ccc(NC(=S)NC(=O)c2c(Cl)cnn2CC)cc1	-12%	2%	-2%	1%[46.1 µM]	-2.5%	-1%	-1%	17%
CCN(C(=O)COc1ccccc1)c1nnc(-c2cccnc2)s1	-8%	-139%	1%	24%[46.1 µM]	-0.1%	3%	2%	5%
CCn1c(=O)cc(SCC(=O)NCCCN2CCC(C)CC2)c2ccccc21	-1%	.	-11%[46.1 µM]	?	.	10%	.	-7%
N/C(=N\OC(=O)CCCc1ccccc1)c1ccccc1Cl	-15%	-31%	11%[46.1 µM]	?	.	40%[activator]	.	5%
Nn1c(-c2cccc(Br)c2)n[nH]c1=S	-5%	-6%	3%	9%	-1.8%	-4%	3%	-5%
NNC(=O)C=C1CCN(c2ncc(C(F)(F)F)cc2Cl)CC1	5%	-6%	-2%	20%	-0.6%	5%	3%	-9%
CC(C)CC(OC(=O)c1cccs1)C(=O)NCc1ccco1 (stereo not given)	1%	-9%	4%	-7%	-22%	-9%	15%	4%
CC(C)CN(CCCNC(=O)CN1N=C(c2ccc(Cl)cc2)CCC1=O)CC(C)C	1%	-7%	-21%[46.1 µM]	.	-0.3%	-19%&-15%	-12%	-9%
CC(=O)N(c1nc(CCl)cs1)c1ccc(C)cc1C	-1%	-2%	.	.	.	-9%	.	-9%
NC(=O)c1c(NC(=O)CN2CCN(S(=O)(=O)c3ccccc3)CC2)sc2c1CCC2	7%	.	?	?	.	?	.	-6%
CN(CC(=O)Nc1cccc(F)c1)CC(=O)Nc1cccc(S(=O)(=O)N(C)c2ccccc2)c1	.	.	?	?	.	?	.	7%
CC(NC(=O)Cc1ccccc1)c1cc2c(cc1Br)OCCCO2 (stereo not given)	-5%	-3%	-8%	13%	-1.7%	-6%	4%	-3%
Cc1c(C)c2ccc(OS(C)(=O)=O)cc2oc1=O	4%	-2%	3%	?	?	5%	-15%	-4%
O=[N+]([O-])c1cccc(CN(CCO)Cc2ccccc2)c1	1%	2%	-15%	-22%	2.7%	-6%	0%	3%
O=C(NCCCN1CCCCC1)c1sc2ncccc2c1-n1cccc1	.	.	14%[46.1 µM]	.	-3.3%	-6%	-3%	.
O=C(O)Cc1csc(NC(=O)CSc2nnnn2-c2ccc(O)cc2)n1	-1%	5%	.	.	.	-8%	.	-2%
CC1N(O)C(C)(C)C(c2ccccc2)=[N+]1[O-] (stereo not given)	14%	4%	-11%	9%	-3.1%	0%	-9%	0%
Cc1c(C(=O)N2CCC(C(N)=O)CC2)sc(N)c1C#N	3%	6%	?	17%	1.8%	.	6%	-6%
O=C(c1ccc2c(c1)N(Cc1cccc(Cl)c1)C(=O)c1ccccc1S2(=O)=O)N1CCc2ccccc21	.	.	?	.	-2.5%	-9%	20µM*	.
Cc1ccsc1CN(C)Cc1nc(C2CC2)no1	0%	5%	2%[46.1 µM]	-2%[46.1 µM]	.	6%	.	-8%
CC1CN(CCOc2ccc(Cl)cc2Cl)CC(C)O1 (stereo not given)	-8%	-2%	4%	-9%	-1.7%	-16%	-3%	.
CC(C)Nc1ccc(C(CC(N)=O)NC(=O)c2ccccc2)cc1[N+](=O)[O-] (stereo not given)	-1%	8%	.	.	.	-5%	.	1%
COc1ccccc1Nc1nc(-c2sc(NC(=O)c3ccc([N+](=O)[O-])cc3)nc2C)cs1	9%	18%	.	4%	1.0%	.	4µM*	.
O=C(CSc1nnc(N2CCOCC2)n1-c1cccc(F)c1)N1CCN(c2ccccn2)CC1	9%	.	-1%	-2%	.	2%	.	-2%
COc1ccc(O[C@H]2C=C[C@@H](c3ccccc3)O[C@@H]2CO/N=C(\C)CCN2CCc3nc(-c4ccccc4)c(-c4ccccc4)cc3C2)cc1	3%	?	-5%	4%	-1.2%	.	?	.
O=C(CSc1ncccc1C(=O)O)c1ccccc1F	-6%	.	9%[46.1 µM]	?	.	19%	.	9%
c1ccc(NN(Cc2cnccn2)c2ccccc2)cc1	.	-3%	.	.	-0.4%	-23%	-8%	-21%
Cc1nc2ccc(NC(=O)COc3ccccc3F)cc2s1	-7%	.	22%[46.1 µM]	?	.	0%	.	-4%
Cc1ccc(N2CC(C(=O)N3CCC(C(=O)Nc4nnc(C(C)C)s4)CC3)CC2=O)cc1 (stereo not given)	2%	-2%	7%	21%	.	-2%	.	-20%
CCc1noc(C)c1C(=O)OCC(=O)NCCc1ccc(OC)cc1	1%	.	-14%[46.1 µM]	8%	.	-13%	.	-6%
CCCCN1C2=NCCCN2c2ccccc21	0%	-2%	-17%	?	5.2%	.	1%	5%
Cc1ccc(C(=O)CSc2nnnn2C(C)C)c(C)c1	-6%	-8%	7.1µM*	5.6µM*	0.5%	14µM*	-7%	2%
Cc1ccccc1NC(=O)CSC1=NCCN1	?	16%	-22%	4%	-1.9%	-23%	-3%	12%
O=C1CCCN1CN(C(=O)c1ccc2c(c1)OCO2)c1cccc(Cl)c1	-3%	-5%	-2%	?	5.2%	-15%	1%	-7%[3.69 µM]
CN(C)CCCn1cnc2c1c(=O)[nH]c(=O)n2Cc1ccccc1	0%	6%	26%[46.1 µM]	-2%[46.1 µM]	.	15%	.	-7%
O=C1CCC(=O)N1OCCOc1ccc2c(c1)CCC2	?	-1%	3%	-12%[46.1 µM]	0.0%	26%	-4%	11%
CCOC(=O)C1(CCc2ccccc2)CCN(C(=O)[C@@H]2C[C@@H](C)NC(=S)N2)CC1	-3%	7%	6%[46.1 µM]	-24%[46.1 µM]	.	19%	.	15%
CCOC(=O)c1ccccc1NC(=O)CSc1ncc(CO)n1Cc1ccc(C)cc1	.	.	?	.	-7.4%	-21%	15%	.
O=C(NCc1ccccc1)C(c1cccnc1)N(C(=O)c1ccccn1)c1cccc(F)c1 (stereo not given)	1%	-15%	9%	-11%[46.1 µM]	.	4%	.	2%
C[C@H](NC(=O)c1nc[nH]c1C(=O)N[C@@H](CCCCNC(=O)OC(C)(C)C)C(=O)OC(C)(C)C)C(=O)OC(C)(C)C	1%	-7%	.	.	.	?	.	-12%
COc1ccccc1NC(=O)Cc1nnc(SCC(=O)c2ccc(F)cc2)n1C	-2%	11%	-2%[46.1 µM]	?	.	0%	.	-6%
COc1cc(NC(=O)c2cc(-n3cnnc3)ccc2Cl)cc(OC)c1	?	1%	-20%	16%	0.2%	-24%	-1%	20%
Cc1nn(C)cc1C(C(=O)NC1CCCCC1)N(C(=O)Cc1cccs1)c1ccc(F)cc1 (stereo not given)	7%	5%	-10%	1%	-3.4%	-10%	?	6%
Next part
SMILES	SARS PLpro yeast	NS1 inh	LASV entry inh	MARV entry inh	Cruzain Triton	2A StopGo	Cruzain inh noDet	RE007 growth inh
O=C(O)CCC(=O)Nc1cccc(C(=O)Nc2ccc(Br)cc2)c1	1%	.	-8%	?	.	34%[activator]	.	-7%
Cc1ccc(NC(=O)CSCC(=O)NCCc2ccccn2)c(C)c1	8%	.	0%	-2%[46.1 µM]	.	2%	.	-6%
O=C(Nc1ccc(Oc2cccnc2)cc1)c1cccc([N+](=O)[O-])c1	-24%	-7%	0%	15%	-1.3%	-5%	-16%	21%
Cc1ccc(S(=O)(=O)N(c2nc(N(C)C)nc(N(C)C)n2)n2cnnc2)cc1	3%	2%	2%	10%	-3.9%	-6%	-5%	-14%

Screens from PubChem BioAssay.
